MLL AF4-AF9 inh = MLL-AF4/AF9 protein interaction inhibition | AlphaScreen, biotin-AF4 peptide binding to FLAG-AF9 | inhibition, % at 10 µM | 0.47% of 350,000 active | AID 651704;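 active = every replicate reaching a set inhibition limit, whatever the replicate mean, cut at about 25% in these data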;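 also: 0% = plate neutral control median and 100% = total signal loss; the record names both 10 and 1 µM as test concentration; the first replicate is given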
Target sequence (P42568 whole entry, looked up): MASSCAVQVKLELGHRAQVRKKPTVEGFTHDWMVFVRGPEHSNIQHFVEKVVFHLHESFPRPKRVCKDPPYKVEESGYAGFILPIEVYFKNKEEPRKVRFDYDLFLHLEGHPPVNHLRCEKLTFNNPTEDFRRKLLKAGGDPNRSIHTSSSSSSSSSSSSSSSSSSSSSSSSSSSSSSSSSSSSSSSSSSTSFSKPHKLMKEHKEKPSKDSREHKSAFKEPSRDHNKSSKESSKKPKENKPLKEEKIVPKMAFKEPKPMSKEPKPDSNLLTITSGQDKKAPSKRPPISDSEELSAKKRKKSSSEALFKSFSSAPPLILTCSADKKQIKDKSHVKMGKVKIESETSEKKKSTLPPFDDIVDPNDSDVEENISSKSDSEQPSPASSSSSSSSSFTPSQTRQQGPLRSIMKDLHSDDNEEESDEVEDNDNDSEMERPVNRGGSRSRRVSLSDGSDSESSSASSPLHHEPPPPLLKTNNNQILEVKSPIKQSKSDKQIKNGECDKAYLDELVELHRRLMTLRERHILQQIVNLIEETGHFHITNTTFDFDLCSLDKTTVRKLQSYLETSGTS
Ecoli rRNA inh = inhibits bacterial ribosomal RNA function over humanized ribosomes | E. coli WT GFP vs humanized-ribosome RFP mutants, fluorescence, 24 h; active compounds read low; DMSO median 0, no signal -100 | GFP signal change (wild-type ribosome), % (no concentration beside the values) | 1.6% of 350,000 active;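 active = significant combined selectivity score with lowered wild-type GFP, culture density cut under 30%, mutant RFP and density less affected; inactive = any of these conditions unmet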; also: one replicate is shown; some compounds called inactive have numbers as strong as hits
Ecoli rRNA inh OD600 = second read-out of Ecoli rRNA inh, no call of its own (marks repeat the call); OD600 change, %; measured here: OD600 growth;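 optical density of the mix in the first replicate; 0 = DMSO median and -100 = no signal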
Ecoli rRNA inh RFP = recorded beside Ecoli rRNA inh, whose call it bears; RFP signal change, %; measured here: RFP humanized mutant strains;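 first replicate; 0 = DMSO median and -100 = no signal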
Starred values were filed as active, the others as inactive. Only part of the results is shown, so the mix of outcomes need not match the whole.

Structure,MLL AF4-AF9 inh,Ecoli rRNA inh,Ecoli rRNA inh OD600,Ecoli rRNA inh RFP
CCNC(=O)C[C@H]1CC[C@H]2[C@@H](COC[C@@H](O)CN2C(=O)Nc2c(C)noc2C)O1,-0.9,4,3,-4.7
COc1ccc(CN(C)C[C@H]2OCCCC[C@H](C)Oc3ccc(NC(=O)CCC(F)(F)F)cc3C(=O)N([C@H](C)CO)C[C@H]2C)cc1,0.5,5,-3,2.3
Cc1noc(C)c1NC(=O)N[C@@H]1CC[C@@H](CCNC(=O)C2CCC2)O[C@@H]1CO,-2.8,0,3,-2.1
C[C@@H]1CCCCO[C@@H](CN(C)S(=O)(=O)c2ccccc2)[C@@H](C)CN([C@H](C)CO)C(=O)c2cc(NC(=O)CCCN(C)C)ccc2O1,-1.8,3,2,-1.4
COCC(=O)Nc1ccc2c(c1)OC[C@H](C)N(Cc1ccccc1F)C[C@@H](C)[C@@H](OC)CN(C)C2=O,3.7,-5,-3,-1.9
C[C@@H]1CN([C@H](C)CO)C(=O)c2cccc(NC(=O)c3ccc(-c4nccs4)cc3)c2O[C@@H]1CN(C)Cc1ccc(Oc2ccccc2)cc1,0.0,4,0,3.9
COc1ccc(CCN2CC(C(=O)N(C)CC(=O)Nc3ccc(F)c(F)c3F)CC2=O)cc1OC (configuration not stated),-6.3,4,18,-0.8
C[C@H](CO)N1C[C@H](C)[C@H](CN(C)C(=O)NC2CCCCC2)Oc2ccc(NS(=O)(=O)c3ccc(Cl)cc3)cc2C1=O,-1.5,3,-1,2.5
C[C@H]1CN([C@@H](C)CO)C(=O)c2cc(/C=C/c3ccccc3)cnc2O[C@@H]1CN(C)C,1.1,-3,-4,-2.5
O=C(C[C@@H]1C[C@@H]2c3cc(NC(=O)C4CCC4)ccc3O[C@@H]2[C@@H](CO)O1)NCc1ccccc1,0.3,-1,3,3.2
CCCC#Cc1ccc2c(c1)O[C@H](CN(C)C(=O)c1ccccc1F)[C@H](C)CN([C@@H](C)CO)S2(=O)=O,1.4,1,-4,-2.5
COc1ccc(C(C)(NC(C)=O)c2nc(-c3ccc(F)cc3OC)cs2)cc1 (configuration not stated),-3.4,-8,-2,0.9
O=C(c1ccccc1)N1C[C@@H]2[C@H](c3ccccc31)[C@@H](CO)N2C(=O)c1ccccn1,0.7,2,16,-2.8
COc1ccc(NC(=O)N2C[C@H](O)COC[C@@H]3O[C@@H](CC(=O)N4CCCCC4)CC[C@H]32)cc1,-0.4,-3,8,0.3
COc1cc(NC(=O)Nc2nnc([C@H]3C[C@H](O)[C@@H](CO)O3)s2)cc(OC)c1,1.3,3,4,0.4
O=C(NCc1cccnc1)c1cc(C2CCCCN2C(=O)c2ccc3c(c2)CCO3)on1 (configuration not stated),-3.9,5,4,2.8
COc1cccc(NC(=O)N[C@H]2C=C[C@@H](CC(=O)N3CCOCC3)O[C@@H]2CO)c1,-1.2,2,2,1.9
COc1ccc(S(=O)(=O)N(C)C[C@H]2Oc3ccc(NS(=O)(=O)c4ccc(Cl)cc4)cc3C(=O)N([C@@H](C)CO)C[C@@H]2C)cc1,-0.9,-2,-6,0.5
COc1cccc(NC(=O)N2C[C@@H](O)COC[C@H]3O[C@@H](CC(=O)NCc4ccccc4F)CC[C@@H]32)c1,-1.4,-4,-5,0.3
CS(=O)(=O)N1[C@@H](C#N)[C@@H](c2ccc(C#Cc3cccc(F)c3)cc2)[C@@H]1CO,-6.1,-46,-71,-9.0
C[C@@H]1CN([C@@H](C)CO)C(=O)c2cc(NC(=O)Nc3ccc4c(c3)OCO4)ccc2O[C@@H]1CN(C)C(=O)Nc1cccc2ccccc12,4.3,-2,-4,0.9
CCN(C[C@H]1[C@H](c2ccccc2)[C@@H](CO)N1C(C)=O)C(=O)c1ccccn1,-2.0,2,6,0.3
CN1C(=O)c2cc(NC(=O)C3CCOCC3)ccc2OC[C@H]2O[C@@H](CC(=O)NCCc3ccncc3)CC[C@H]21,-0.9,4,9,-0.5
CCCc1c(-c2cccc(Br)c2)ncn1Cc1cccc(-c2ccccc2)c1,3.8,7,10,12
Cc1cccc(C)c1NC(=O)C(c1ccccc1)N1CCC(Cc2ccccc2)CC1 (configuration not stated),-3.2,-5,-7,-6.6
C[C@H]1CN([C@@H](C)CO)C(=O)Cc2cc(NC(=O)NC3CCCCC3)ccc2O[C@@H]1CN(C)S(=O)(=O)c1ccc(Cl)cc1,0.9,4,5,-0.9
CC(C)NC(=O)N(C)C[C@H]1Oc2cc(-c3cccnc3)ccc2S(=O)(=O)N([C@@H](C)CO)C[C@@H]1C,-0.3,1,6,-0.5
CCN(C(=O)COC(=O)c1ccccc1Oc1ccccc1)c1c(N)n(Cc2ccccc2)c(=O)[nH]c1=O,-6.3,1,-10,12
COc1cc(OC)c(C(=O)OCC(=O)N2CCN(S(=O)(=O)c3ccc(C)cc3C)CC2)cc1OC,-1.4,-10,-6,-0.6
Cc1ccccc1-c1ccc([C@H]2[C@H](CO)N3C(=O)CN(C(=O)c4ccc(F)cc4)C[C@@H]23)cc1,-3.5,2,-10,2.1
Cc1ccccc1-c1ccc([C@@H]2[C@@H](CO)N3C(=O)CN(S(C)(=O)=O)C[C@H]23)cc1,8.6,4,10,-0.9
COc1ccccc1Cc1c(-c2ccccc2)nc2c3ccccc3ccn12,0.7,-2,-8,-2.0
C[C@H]1CN([C@@H](C)CO)C(=O)c2cccc(NC(=O)Nc3ccc(C(F)(F)F)cc3)c2O[C@H]1CN(C)S(=O)(=O)c1cccs1,1.6,-6,-6,-4.3
C/C=C/c1cnc2c(c1)C(=O)N([C@@H](C)CO)C[C@H](C)[C@@H](CN(C)C(=O)c1cccnc1)O2,-7.9,6,7,-3.0
CN(C)c1cccc(CNC(=O)c2csc([C@@H]3O[C@H](CO)[C@@H](O)[C@H]3O)n2)c1,-1.0,8,14,1.1
C[C@H]1[C@H](c2ccccc2)Oc2ccc(Cl)cc2S(=O)(=O)N1C[C@@H]1CCCN1C(=O)OC(C)(C)C,0.3,16,12,1.6
CNc1cccc(-c2ccc(C(=O)N3CCOCC3)cc2)n1,-1.0,5,20,-0.5
C[C@@H]1CN([C@@H](C)CO)S(=O)(=O)c2ccc(C#CC3(O)CCCC3)cc2O[C@@H]1CN(C)C(=O)Cc1ccccc1,-0.3,-3,-14,0.5
COCC(=O)N1C[C@@H](C)[C@@H](OC)CN(C)C(=O)c2ccc(NC(=O)NC(C)C)cc2OC[C@@H]1C,-1.6,1,2,-2.1
CCCNC(=O)N1CC[C@@H]2[C@@H](CO)N(C)c3ccc(-c4ccc(F)cc4)cc3[C@@H]21,19,-6,-52,5.7
Cc1noc(C)c1NC(=O)N(C)C[C@@H]1Oc2ncc(C#CC3CC3)cc2C(=O)N([C@@H](C)CO)C[C@H]1C,-1.2,0,4,-1.6
O=C(C[C@@H]1CC[C@@H](NC(=O)Nc2ccc3c(c2)OCO3)[C@@H](CO)O1)NCc1ccc(Cl)cc1,1.8,-6,-3,3.9
C[C@H]1CCCCO[C@H](CN(C)C(=O)Nc2ccc(F)cc2)[C@@H](C)CN([C@@H](C)CO)C(=O)c2cc(NC(=O)CCC(F)(F)F)ccc2O1,-1.1,-3,-4,1.9
COCCNC(=O)C[C@H]1C[C@@H]2c3cc(NC(=O)c4ccc5c(c4)OCO5)ccc3O[C@@H]2[C@H](CO)O1,-1.6,0,0,-2.3
Cc1cc2c(cc1C)-n1nnnc1C(N1CCCC1)C(=O)N2 (configuration not stated),0.3,9,3,2.2
COc1cc(CN2C[C@@H](CO)O[C@@H](n3cnc4c(Nc5ccccc5)ncnc43)C2)cc(OC)c1OC,1.6,7,-4,3.4
CSCCC(c1nc2ccccc2[nH]1)n1c(/C=C/c2ccc(F)c(F)c2)nc2ccccc21 (configuration not stated),1.1,-2,-5,-1.8
CCC(=O)Nc1ccc2c(c1)C(=O)N(C)[C@H]1CC[C@H](CC(=O)NCCCN(C)C)O[C@H]1CO2,0.4,1,6,-1.6

Part of the list above, set out differently.
structure: Cc1ccccc1-c1ccc([C@@H]2[C@@H](CO)N3C(=O)CN(S(C)(=O)=O)C[C@H]23)cc1
  MLL AF4-AF9 inh: 8.6; Ecoli rRNA inh: 4; Ecoli rRNA inh OD600: 10; Ecoli rRNA inh RFP: -0.9

structure: CCCC#Cc1ccc2c(c1)O[C@H](CN(C)C(=O)c1ccccc1F)[C@H](C)CN([C@@H](C)CO)S2(=O)=O
  MLL AF4-AF9 inh: 1.4; Ecoli rRNA inh: 1; Ecoli rRNA inh OD600: -4; Ecoli rRNA inh RFP: -2.5

structure: CCCNC(=O)N1CC[C@@H]2[C@@H](CO)N(C)c3ccc(-c4ccc(F)cc4)cc3[C@@H]21
  MLL AF4-AF9 inh: 19; Ecoli rRNA inh: -6; Ecoli rRNA inh OD600: -52; Ecoli rRNA inh RFP: 5.7

(more compounds)
Value order: MLL AF4-AF9 inh, Ecoli rRNA inh, Ecoli rRNA inh OD600, Ecoli rRNA inh RFP
> COCC(=O)N1CC(=O)N2[C@H](CO)[C@H](c3ccc(C#Cc4cccc(OC)c4)cc3)[C@H]2C1
 : -1.0, -1, 2, 0.3
> CC(C)NC(=O)Nc1ccc2c(c1)C(=O)N([C@H](C)CO)C[C@H](C)[C@H](CN(C)S(C)(=O)=O)OCCCC[C@H](C)O2
 : -8.4, 1, 9, -2.9
> C[C@@H]1CCCCO[C@@H](CN(C)Cc2ccc(C(=O)O)cc2)[C@H](C)CN([C@@H](C)CO)C(=O)c2cc(NC(=O)CCC(F)(F)F)ccc2O1
 : -1.7, -3, -4, 1.5
> C[C@@H]1CCCCO[C@@H](CN(C)S(C)(=O)=O)[C@@H](C)CN([C@@H](C)CO)C(=O)c2cc(NC(=O)CCC(F)(F)F)ccc2O1
 : -14, -4, 1, -1.5
> C[C@H](CO)N1C[C@H](C)[C@H](CN(C)CC2CCOCC2)Oc2cc(C#CC3CC3)ccc2S1(=O)=O
 : 4.7, 0, -4, 0.5
> CCCC(=O)Nc1ccc2c(c1)C(=O)N(C)C[C@@H](OC)[C@H](C)CN(C(=O)c1ccncc1)[C@@H](C)CO2
 : 2.9, 2, 5, -1.2
> C[C@H](CO)N1C[C@H](C)[C@H](CN(C)C(=O)Nc2ccc3c(c2)OCO3)Oc2ncc(C#CC3(O)CCCC3)cc2C1=O
 : -4.7, 3, 5, -3.2
> COc1ccc(S(=O)(=O)N2CCCCN3[C@H](CO)[C@@H](c4ccc(C#CC5CC5)cc4)[C@H]3C2)cc1
 : 8.5, -51, -55, -3.1
> C[C@H](CO)N1C[C@H](C)[C@H](CN(C)Cc2ccc(Cl)c(Cl)c2)Oc2ccc(NC(=O)NC3CCCCC3)cc2C1=O
 : -1.4, 0, -2, 1.0
> O=C(Nc1ccccc1F)N1CC(=O)N2[C@H](C1)[C@H](c1ccc(C#Cc3ccccc3)cc1)[C@@H]2CO
 : -12, 0, -24, 19
> O=C(Nc1ccccc1F)N[C@H]1C=C[C@H](CC(=O)N2CCCCC2)O[C@H]1CO
 : -0.7, 0, -7, 0.4
> O=C(NCc1ccccc1F)[C@H]1N[C@H]2c3ccc(-c4ccccc4F)c(=O)n3C[C@H]2[C@@H]1CO
 : -2.8, -2, -6, 1.2
> COc1ccc(NC(=O)Nc2ccc3c(c2)CC(=O)N([C@H](C)CO)C[C@@H](C)[C@@H](CN(C)Cc2ccc(Oc4ccccc4)cc2)O3)cc1
 : 1.1, 4, 15, -0.1
> COCC#Cc1ccc2c(c1)O[C@H](CN(C)C(=O)Nc1ccc(OC)cc1)[C@H](C)CN([C@@H](C)CO)S2(=O)=O
 : 2.1, -7, -12, -1.3
> CO[C@H](CN(C)C(=O)c1cnccn1)[C@H](C)CN([C@@H](C)CO)S(=O)(=O)c1ccc(F)cc1
 : 0.2, 2, -4, -2.0
> C[C@@H]1CN([C@@H](C)CO)C(=O)c2cc(C3=CCCC3)cnc2O[C@H]1CN(C)Cc1cccc(F)c1
 : 4.4, 0, -4, 9.0
> Cc1ccc(C(O)c2ncc(-c3ccc4ccccc4c3)[nH]2)cc1F (configuration not stated)
 : -3.4, -35, -45, -12
> CCC(=O)Nc1ccc2c(c1)C(=O)N(C)C[C@@H](OC)[C@@H](C)CN(Cc1ccccc1F)[C@H](C)CO2
 : 2.0, -3, -2, -0.7
> COc1ccc(C#Cc2ccc([C@H]3[C@@H](CO)N4CCCCN(S(=O)(=O)c5cn(C)cn5)C[C@@H]34)cc2)cc1
 : -1.5, -3, -5, 5.0
> CCC(=O)N[C@@H]1CC[C@H](CCNC(=O)Nc2ccc(F)cc2)O[C@H]1CO
 : 2.5, 3, 12, 0.9
> O=C(C[C@H]1CC[C@@H]2NC[C@@H](O)COC[C@H]2O1)NC1Cc2ccccc2C1
 : 4.0, 0, 3, 0.5
> COc1ccc(-c2ccccc2[C@H]2[C@@H](C#N)N(C(=O)C3CCOCC3)[C@H]2CO)cc1
 : -1.6, 1, 16, 1.9
> Cc1ccc(C(=O)Nc2nc(C(N)Cc3ccc(C(F)(F)F)cc3)cs2)cc1 (configuration not stated)
 : -9.8, -61, -83, -20

Bioassay records: PubChem BioAssay, Broad Institute
